# Ecoli growth – E. coli growth inhibition, primary screen, OD600; Escherichia coli growth, 23 h; hits give low values; hit rate 0.21% among 330,000; OD600 absorbance (test concentration not listed);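 active = OD600 absorbance below the run mean of sample wells minus 3.6 SD, in any replicate, cut at about 0.56 in these data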;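 note: stock transfer was 300 nL into about 60 µL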
# HNF4A DNA FP – change in binding of human HNF4A to DNA, primary screen, biochemical, fluorescence polarization, FITC-DNA. 1 h. activity change, % at 10 µM. hit rate 0.3% among 360,000. AID 1224865, 2016; in the data active = activity change above about 30%, passing the limit was not always enough;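 note: controls were the assay level and a saturating level of protein; the project sought stronger binding though the title names inhibitors; some compounds called inactive have numbers as strong as hits; positive values seem to mean higher polarization but the record does not say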
# Beta2AR agonist – beta2AR agonists driving receptor internalization, primary screen, cell-based, FAP fluorogen, flow cytometry; Beta-2 adrenergic receptor (Homo sapiens), P07550; Am2.2-beta2AR cells; reference of the scale not given here; response, % (no concentration beside the values); hit rate 0.43% among 340,000; AID 504454, 2011;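 active = response above a set limit, near 3 SD of response in nonfluorescent compounds, cut at about 42% in these data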;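 note: stock transfer was 100 nL into about 11 µL; a reference agonist was the positive control; negative values mostly stem from fluorescent compounds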
# Target sequence (P07550 whole entry, looked up): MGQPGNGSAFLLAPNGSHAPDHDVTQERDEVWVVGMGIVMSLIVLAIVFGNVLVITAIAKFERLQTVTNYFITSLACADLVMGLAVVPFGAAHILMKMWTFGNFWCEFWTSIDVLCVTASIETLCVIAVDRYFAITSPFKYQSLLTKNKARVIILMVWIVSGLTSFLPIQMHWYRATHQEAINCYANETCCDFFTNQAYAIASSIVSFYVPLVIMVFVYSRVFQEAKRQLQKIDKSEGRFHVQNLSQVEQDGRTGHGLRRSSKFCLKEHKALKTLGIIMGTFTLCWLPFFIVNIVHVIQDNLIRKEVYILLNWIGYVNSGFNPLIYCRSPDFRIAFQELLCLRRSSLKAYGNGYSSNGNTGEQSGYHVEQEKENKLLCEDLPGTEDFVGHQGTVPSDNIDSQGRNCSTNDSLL
# UCH37 DUB inh – inhibitors of human UCH37 deubiquitinase, primary screen, biochemical, Ub-AMC cleavage, fluorescence; Ubiquitin carboxyl-terminal hydrolase isozyme L5 (Homo sapiens), Q9Y5K5; purified proteasome/UCH37; inhibition, % (no concentration beside the values); hit rate 0.33% among 330,000;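 active = mean of two replicates above 20%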;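 note: 0% = compound-free wells with enzyme and 100% = wells lacking proteasome; stock transfer was 100 nL into about 20 µL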
# Target sequence (Q9Y5K5 whole entry, looked up): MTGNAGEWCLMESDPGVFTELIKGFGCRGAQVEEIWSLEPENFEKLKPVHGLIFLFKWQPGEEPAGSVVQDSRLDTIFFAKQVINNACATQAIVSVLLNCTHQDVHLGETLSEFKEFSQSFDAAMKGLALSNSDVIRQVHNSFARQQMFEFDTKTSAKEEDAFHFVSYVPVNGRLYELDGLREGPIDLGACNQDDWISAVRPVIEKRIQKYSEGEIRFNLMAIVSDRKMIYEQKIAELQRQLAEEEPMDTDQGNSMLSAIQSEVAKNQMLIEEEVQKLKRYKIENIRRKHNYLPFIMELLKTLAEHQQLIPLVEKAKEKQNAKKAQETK
#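 Assay system: Proteasome-bound UCH37. Buffer or medium: pH 7.4 Tris-HCl (50 mM) with ovalbumin, ATP-MgCl2, DTT. Incubation: 30 min preincubation with enzyme, 25 min cleavage at room temperature. Measured by: fluorescence, ex 355 nm, em 460 nm. Read-out basis: percent inhibition. Control set: wells without proteasome as full block, compound-free enzyme plus substrate as uninhibited.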
# rRNA inh HTS – reduced GFP signal of wild-type E. coli, primary screen, bacterial rRNA inhibitor project, GFP/RFP fluorescence, OD600, single point; E. coli WT GFP vs humanized-ribosome RFP mutants, 24 h; hits give low values; DMSO median 0, no signal -100; GFP signal change (wild-type ribosome), % (no concentration beside the values); hit rate 1.6% among 350,000;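 active = significant combined selectivity score with lowered wild-type GFP, culture density cut under 30%, mutant RFP and density less affected; inactive = any of these conditions unmet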; note: one replicate is shown; some compounds called inactive have numbers as strong as hits
# FGF22 binding – binders of human FGF22 protein, primary screen, FGF22 synaptogenesis inhibitor project, biophysical, thermal shift, single point. Fibroblast growth factor 22 (Homo sapiens), Q9HCT0. recombinant FGF22 thermal shift, SYPRO orange fluorescence; percent of sucrose octasulfate shift, DMSO zero. calls only at 9.99 µM. hit rate 1.5% among 340,000;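 active = melting point raised past a set limit in the mean and every replicate; three in four hits are not shown here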
# Target sequence (Q9HCT0 whole entry, looked up): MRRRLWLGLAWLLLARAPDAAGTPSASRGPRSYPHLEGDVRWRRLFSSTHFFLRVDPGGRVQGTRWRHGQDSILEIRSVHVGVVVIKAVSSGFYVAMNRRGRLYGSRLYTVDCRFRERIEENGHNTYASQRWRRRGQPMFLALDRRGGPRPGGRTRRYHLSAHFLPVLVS
# ALR H2O2 inh – inhibitors of human ALR sulfhydryl oxidase, primary screen, biochemical, H2O2 detection, HRP-luminol luminescence, single point; inhibition, % (no concentration beside the values); hit rate 3.8% among 290,000; AID 485317, 2010; FAD-linked sulfhydryl oxidase ALR (Homo sapiens), P55789; purified ALR, DTT oxidation;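 active = mean and each replicate at 75% or more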;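 note: stock transfer was 7.5 nL into about 7.5 µL; 0% = neutral wells and 100% = wells with inactivated enzyme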
# rRNA inh HTS OD600 – also measured in rRNA inh HTS; calls as there; OD600 change, %; measured here: OD600 growth;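 optical density of the mix in the first replicate; 0 = DMSO median and -100 = no signal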
# rRNA inh HTS RFP – second read-out of rRNA inh HTS, no call of its own (marks repeat the call); RFP signal change, %; measured here: RFP humanized mutant strains;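 first replicate; 0 = DMSO median and -100 = no signal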
# Starred values were filed as active, the others as inactive; i = inactive; nt = no result given; & = joins results of further samples. Not all compounds are listed; the hit share may differ from the screen's.
SMILES,Ecoli growth,HNF4A DNA FP,Beta2AR agonist,UCH37 DUB inh,rRNA inh HTS,rRNA inh HTS OD600,rRNA inh HTS RFP,FGF22 binding,ALR H2O2 inh
CC(NC(=O)CCSCCC(=O)NC(C)c1ccccc1)c1ccccc1 (stereo unspecified),0.71,1.5,5,0.9,nt,nt,nt,nt,-11
CC1C(=O)N(Cc2ccccc2F)c2ccccc2N1C(=O)c1c(F)cccc1F (stereo unspecified),0.7,-3.6,12,4.4,-20,-37,-21,i,-6
Cc1oc(-c2ccccc2Cl)nc1CN(C)C(C)c1ccon1 (stereo unspecified),0.7,-2.5,2,0.6,3,-3,-3.9,nt,-1
O=C(CSc1nc(-c2ccco2)cc(C(F)(F)F)n1)NC1CCCC1,nt,6.0,-25,nt,-2,9,3.1,i,4
CCN(C(=O)COC(=O)CNC(=O)c1cccs1)c1c(N)n(Cc2ccccc2)c(=O)[nH]c1=O,0.61,-1.9,2,-0.3,4,13,-2.4,i,nt
CCC(=O)Nc1cccc(C(=O)c2ccccc2)c1,0.6,1.7,-8,1.8,-7,-5,-3.3,nt,-6
O=C(COC(=O)c1ccc(O)cc1O)Nc1ccc2ccccc2c1,0.65,-0.6,3,1.4,-35,-47,-1.9,i,2
COc1ccccc1OCCCOc1cccc(/C=C2\SC(=O)NC2=O)c1,nt,-0.1,12,nt,-36,-34,-1.0,i,-2
Cc1ccc(NC(=O)CSC2=NCCN2)cc1,0.67,2.6,4,2.3,nt,nt,nt,nt,-3
CCOC(=O)c1ccc(-c2ccc3[nH]c4ccccc4c(=O)c3c2)cc1F,0.7,2.8,0,0.4,12,4,0.1,i,11
NNC(=O)CC1NCCN(Cc2ccccc2)C1=O (stereo unspecified),0.66,-0.9,-4,0.5,12,20,0.2,i,-68
Cc1ccc(S(=O)(=O)NCc2ccncc2)cc1,0.69,-3.3,1,4.2,nt,nt,nt,nt,-8
Cc1nc2ccccn2c1-c1ccnn1S(=O)(=O)c1ccc(F)cc1,0.64,2.0,8,4.7,-18,-40,-4.0,nt,0
O=C(CSc1nc(-c2cccs2)nc2ccccc12)NC1CCS(=O)(=O)C1 (stereo unspecified),0.66,1.6,-19,-9.8,12,20,-1.1,i,-2
Cc1nnc(-c2ccccc2)o1,0.71,2.4,-8,1.0,6,8,2.0,i,-3
S=C(SSC(=S)N1CCOCC1)N1CCOCC1,nt,0.6,nt,nt,8,11,-1.1,i,nt
O=C(NNC(=S)NCCc1ccccc1)c1ccc(Br)s1,0.7,-1.7,-4,3.6,-39,-52,0.7,i,25
CC(=O)c1cccc(Nc2nc(-c3sc(C)nc3C)cs2)c1,0.68,1.0,28,0.7,-4,-2,1.1,i,3
O=C(NCCC1=CCCCC1)NC1CCCCC1,0.69,-3.3,-1,5.9,nt,nt,nt,nt,4
COc1ccc(/C=C(/NC(=O)c2ccc([N+](=O)[O-])cc2)C(=O)NC(C)(C)C)cc1,0.67,-0.6,1,4.8,15,6,0.6,i,-6
O=C(Cc1ccc(F)cc1)OCC(=O)N1CCN(S(=O)(=O)c2ccc(Cl)cc2)CC1,0.69,1.6,-15,2.0,0,-4,-0.5,i,1
CCOC(=O)CC1(C)c2nc(NC(C)=O)sc2Cc2sc(NC(C)=O)nc21,nt,-3.3,nt,nt,-2,3,1.5,i,nt
NC(=O)CC(NC(=O)Cc1cccc2ccccc12)c1ccc(NC2CCCCCCC2)c([N+](=O)[O-])c1 (stereo unspecified),nt,20,-1,nt,5,20,-3.5,i,0
CCCCN(C)CCCNC(=O)CN1N=C(c2ccc(Cl)cc2)CCC1=O,0.64,-6.1,6,2.0,8,6,-1.1,i,-5

# Some of these compounds in order of molecular weight, high to low.
SMILES,Ecoli growth,HNF4A DNA FP,Beta2AR agonist,UCH37 DUB inh,rRNA inh HTS,rRNA inh HTS OD600,rRNA inh HTS RFP,FGF22 binding,ALR H2O2 inh
CCCCN(C)CCCNC(=O)CN1N=C(c2ccc(Cl)cc2)CCC1=O,0.64,-6.1,6,2.0,8,6,-1.1,i,-5
Cc1nc2ccccn2c1-c1ccnn1S(=O)(=O)c1ccc(F)cc1,0.64,2.0,8,4.7,-18,-40,-4.0,nt,0
S=C(SSC(=S)N1CCOCC1)N1CCOCC1,nt,0.6,nt,nt,8,11,-1.1,i,nt
Cc1nnc(-c2ccccc2)o1,0.71,2.4,-8,1.0,6,8,2.0,i,-3

# (more compounds)
SMILES,Ecoli growth,HNF4A DNA FP,Beta2AR agonist,UCH37 DUB inh,rRNA inh HTS,rRNA inh HTS OD600,rRNA inh HTS RFP,FGF22 binding,ALR H2O2 inh
CC1Nc2ccc(C(=O)NC3CCCCC3)cc2NC1=O (stereo unspecified),0.68,61*,2,-36,5,6,21,i,-2
CCOc1ccccc1N(C(=O)CNC(=O)c1ccco1)C(C(=O)NC(C)(C)C)c1ccncc1 (stereo unspecified),0.72,-1.9,-3,1.3,nt,nt,nt,nt,nt
c1ccc(N2CCOCCOCCOCCOCC2)cc1,0.63,-1.8,4,6.2,6,2,6.6,i,99*
COc1ccc2c(c1)C(CC(C)=O)N(c1ccc(-c3cccnc3)cc1)C(c1ccsc1)=C2 (stereo unspecified),nt,6.8,nt,nt,5,-22,0.2,i,nt
CCOc1ccccc1Nc1nnc(SCC(=O)N2CCCC2)s1,0.73,4.0,1,3.7,nt,nt,nt,nt,-4
CC(C)(C)C(CCl)C(=O)NN=C(c1ccccc1)c1ccccc1 (stereo unspecified),0.61,5.7,-3,3.0,16,4,4.8,i,23
Cc1cc(C)cc(NC(=O)CN2CCN(C(=O)C3CCCO3)CC2)c1 (stereo unspecified),0.7,-1.7,-5,-0.7,7,12,1.0,i,-5
Cc1cccc(N2CCN(Cc3oc(CO)cc(=O)c3O)CC2)c1C,0.72,1.9,8,-0.4,nt,nt,nt,nt,33
Cc1ccc(NC(=O)c2cc(N3C(=O)C4CC=CCC4C3=O)ccc2N2CCCCC2)cc1 (stereo unspecified),0.73,-0.7,12,-29,nt,nt,nt,nt,-3
Cc1nc(-c2ccc(NS(C)(=O)=O)cc2)cs1,0.66,0.8,12,1.6,nt,nt,nt,nt,15
O=C(CNC(=O)c1n[nH]c2ccccc12)Nc1cc(Cl)ccc1Cl,0.7,-2.1,3,-1.0,10,4,8.1,i,-1
CC1(C)CC(=O)c2c(noc2-c2ccccc2)C1,0.64,-0.1,9,6.1,nt,nt,nt,nt,-10
NC(=O)CC(NC(=O)c1ccccc1)c1ccc(NCCc2ccc(F)cc2)c([N+](=O)[O-])c1 (stereo unspecified),0.63,8.0,-5,-1.0,9,14,1.1,i,5
COc1ccc(Cl)cc1S(=O)(=O)NCc1nc2nc(C)cc(C)n2n1,0.65,-2.4,-15,2.8,7,3,-7.7,i,-22
Cc1nn(-c2ccc(F)cc2)c(C)c1NS(=O)(=O)c1ccc(Cl)cc1,0.72,1.1,6,1.7,nt,nt,nt,nt,-5
O=C1CCC([N+](=O)[O-])C(c2ccccc2F)N1 (stereo unspecified),0.67,3.8,-1,-1.4,4,14,-2.7,i,nt
CCOc1ccc(/C=N/n2c(SC)nnc2-c2ccccc2)cc1OCC,nt,-1.2,-8,nt,nt,nt,nt,nt,-7
OC(COc1ccc(Br)cc1)CN1CCC(Cc2ccccc2)CC1 (stereo unspecified),0.6,-0.3,7,7.8,-27,-62,33,i,-4
COc1ccc(/C=C(/NC(=O)c2ccccc2)C(=O)NCC2CCCO2)cc1 (stereo unspecified),0.71,4.5,-4,1.0,3,11,-0.9,i,-3
O=C1C=C(c2ccc(Oc3ccccc3)cc2)C[C@@H](c2ccc(F)cc2)C1,nt,-2.8,-8,2.7,1,-1,-13,i,-7
COCCCN(C(=O)CC1OC(=O)c2ccccc21)c1c(N)n(Cc2ccccc2)c(=O)[nH]c1=O (stereo unspecified),0.69,3.5,-12,0.7,15,11,0.6,i,-3
COC(=O)Cn1c(=NC(=O)CSCC(=O)NC2CCCCC2)sc2cc(OC)ccc21,0.76,0.1,1,-9.6,nt,nt,nt,nt,-2
O=C(NCCCN1CCCCC1)c1ccc2c(c1)NC(=O)c1ccccc1S2,0.71,3.1,5,3.5,9,16,0.5,i,-7
CN(C)C(/C=C/Nc1ccc(F)cc1F)=C(C#N)C#N,0.67,-0.6,1,2.7,nt,nt,nt,nt,-15
Cc1cc(Cl)ccc1OCc1nc(-c2ccc(O)cc2)n[nH]1,0.65,-0.1,2,2.0,nt,nt,nt,nt,98*
COc1cccc(C(O)c2nc(-c3cc4ccccc4o3)cs2)c1 (stereo unspecified),nt,4.3,nt,nt,-58,-74,-21,i,nt
CCOC(=O)[C@]12CCC=C1N(Cc1ccc3c(c1)OCO3)C(=O)[C@H](CC(=O)NCCc1ccccc1OC)C2,nt,2.0,nt,nt,-20,-15,13,i,nt
COc1ccc(NC(=O)Cn2c(=O)n(CC3CCCO3)c(=O)c3cc(OC)c(OC)cc32)cc1OC (stereo unspecified),0.72,-2.9,20,5.9,0,6,-2.1,i,-1
CCN(C(=O)COC(=O)c1ccc(Cl)cc1N)C1CCCCC1,0.63,-5.3,1,-102,-18,-12,-2.5,i,1
CCOC(=O)CC(=O)CSc1nc2sc(C)cc2c(=O)n1Cc1ccco1,0.71,-0.4,-5,3.7,nt,nt,nt,nt,-1
Cc1ccsc1C1C(C#N)=C(N)OC2=C1C(=O)CCC2 (stereo unspecified),0.69,-4.5,7,3.8,1,1,-2.3,i,17
CCc1ccc(NC(=O)C2CCN(S(=O)(=O)c3cnc[nH]3)CC2)cc1,0.72,-1.1,-1,-0.9,-2,2,-2.3,i,-4
CCSc1ncc(/C=N/Nc2ccc([N+](=O)[O-])cc2)n1C,nt,9.5,8,nt,nt,nt,nt,nt,2
C[C@@H]1CN([C@H](C)CO)C(=O)Cc2cc(NS(=O)(=O)c3ccc(F)cc3)ccc2O[C@H]1CN(C)Cc1ccc(C(=O)O)cc1,nt,2.5,2,3.9,-3&10,-2&18,-3.3&0.0,i,1
O=C(O)C1CCC(N2C(=O)c3cccc([N+](=O)[O-])c3C2=O)CC1 (stereo unspecified),0.64,2.9,-6,5.2,5,3,0.3,i,-32
Cc1cc(C)c(S(=O)(=O)N(C)CC(=O)NC2CCCC2)c(C)c1,0.65,0.2,1,1.8,nt,nt,nt,nt,-2
CCOC(=O)[C@]12CCCC=C1N(Cc1ccco1)C(=O)[C@H](CC(=O)NCc1cccc3ccccc13)C2,nt,2.5,nt,nt,-9,-17,12,i,nt
Cc1cccc(CS(=O)(=O)Cc2ccc(C(=O)NCC3CCCO3)o2)c1 (stereo unspecified),0.7,-4.7,3,-2.6,nt,nt,nt,nt,-1
NC(=O)/C(=C\c1ccccc1)NC(=O)c1ccc(NC(=O)c2ccccc2)cc1,0.63,4.5,4,6.7,nt,nt,nt,i,-4
O=C(CC1C(=O)NCCN1Cc1ccc(-c2ccccc2)cc1)NCCCn1cccn1 (stereo unspecified),0.66,-2.1,7,4.3,2,6,2.1,i,-9
O=C(COC(=O)Cc1cccs1)Nc1ccc(OC(F)(F)F)cc1,0.71,3.1,-3,-3.8,-1,3,1.2,i,-27
COC(=O)[C@H](CCSC)NC(=O)Cn1ccc(N)nc1=O,0.8,5.9,1,0.3,8,6,-4.0,i,1
